Rango complex inh – Rango-importin beta binding inhibition | 0.031% of 340,000 active | Rango CFP/YFP FRET sensor + importin beta, 45 min | Q14974 | AID 540263 | Potency, µM (highest dose often 92.2 µM), without a hit: top-dose inhibition of complex formation; active = rising FRET ratio curve, often small or poorly fitted; inconclusive = mostly compound fluorescence or quenching in the first reads; inactive = flat curves in all reads;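 note: potency is the fitted concentration of half-maximal effect; 0% = DMSO wells and 100% = buffer wells lacking importin beta; nearly all actives have a fitted effect of over 15% in size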
Target sequence (Q14974 whole entry, looked up): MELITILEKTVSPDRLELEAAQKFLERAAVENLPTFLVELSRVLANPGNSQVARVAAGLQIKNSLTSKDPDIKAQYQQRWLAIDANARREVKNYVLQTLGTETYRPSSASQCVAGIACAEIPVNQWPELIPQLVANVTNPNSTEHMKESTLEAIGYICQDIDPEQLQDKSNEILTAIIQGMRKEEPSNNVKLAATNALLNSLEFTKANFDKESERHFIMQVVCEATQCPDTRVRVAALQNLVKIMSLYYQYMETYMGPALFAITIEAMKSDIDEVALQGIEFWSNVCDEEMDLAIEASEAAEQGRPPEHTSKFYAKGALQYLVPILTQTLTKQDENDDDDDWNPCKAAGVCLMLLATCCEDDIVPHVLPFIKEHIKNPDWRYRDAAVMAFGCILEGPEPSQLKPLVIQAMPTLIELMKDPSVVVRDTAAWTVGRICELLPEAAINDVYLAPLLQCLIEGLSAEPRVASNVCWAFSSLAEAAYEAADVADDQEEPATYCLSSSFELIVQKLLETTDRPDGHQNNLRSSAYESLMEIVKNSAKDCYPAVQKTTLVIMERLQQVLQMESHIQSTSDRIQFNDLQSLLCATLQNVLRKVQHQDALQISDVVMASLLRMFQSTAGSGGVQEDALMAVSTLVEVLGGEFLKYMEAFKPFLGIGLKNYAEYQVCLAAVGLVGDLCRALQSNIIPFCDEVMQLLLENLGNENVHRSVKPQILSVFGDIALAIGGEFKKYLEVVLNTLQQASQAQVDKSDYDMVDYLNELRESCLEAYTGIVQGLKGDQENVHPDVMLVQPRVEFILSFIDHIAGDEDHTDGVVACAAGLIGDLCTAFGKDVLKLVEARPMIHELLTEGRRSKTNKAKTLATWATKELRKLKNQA
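Inhibition scored from the CFP 486 nm/YFP 530 nm FRET ratio 45 min after adding 0.125 microM importin beta to 50 nM Rango biosensor preincubated 5 min with compound (room temperature, PBS with DTT, Tween-20, BSA). No-importin wells as positive control.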
Rango release inh – prevents RanGTP from dissociating the Rango-importin beta complex; Biochemical FRET Rango-importin beta, RanGTP-induced dissociation; Potency, µM (top dose mostly 46.1 µM), for the others: at the top dose activity change, negative = inhibition; 0.071% of 340,000 active; active means falling FRET ratio curve, often poorly fitted, with flat reads before Ran was added; inconclusive means other falling curves, or compound fluorescence or quenching; inactive means flat or rising ratio curve;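 note: potency is the fitted concentration of half-maximal effect; % of control where 0% means no effect; nearly all actives have a fitted effect of over 45% in size; -100% = wells without RanGTP and RCC1; the record marks most hits as doubtful in a second field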
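Quantitative HTS using a FRET biosensor: 0.1 uM Rango, 0.25 uM importin beta, 0.6 uM Ran, 2 mM GTP, 0.2 uM RCC1 final, PBS with DTT, Tween-20 and BSA. Post-read taken 45 min after Ran addition.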
GLA inh pH 4.5 – blocks human alpha-galactosidase A at pH 4.5; P06280; purified enzyme, 4-MU-alpha-Gal fluorescence, pH 4.5; activity change, negative = inhibition, % at 105 µM; 230,000 tested, under 10 active; inconclusive = small, poorly fitted or top-dose-only inhibition, or a rising curve; inactive = flat fitted curve, though single readings scatter; no compound was filed as active;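 note: 0% = full activity with enzyme and -100% = basal without enzyme; dose as in the result columns while the protocol names 77 µM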
miR-21 reporter – raises the signal of a miR-21 reporter. HeLa miR-21 FLuc reporter, luciferase, 48 h. Potency, µM (series often up to 38.3 µM), without a hit: top-dose reporter change, positive = more light. 340,000 tested, under 10 active. AID 2288; active = well fitted rising curve with a large enough effect; inconclusive = small, poorly fitted or top-dose-only effect; inactive = no such curve, though single readings can be large or run the other way;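 note: % of control where 0% means no effect; miR-21 action dims this reporter so a rising signal means less miR-21 action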
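HeLa cells stably expressing CMV-driven firefly luciferase with a downstream miR-21 binding sequence, endogenously expressing miR-21, were treated with titrations (up to about 40uM final) for 48 hours at 37 degree Celsius. Luciferase luminescence was read after lysis.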
Starred values were filed as active, the others as inactive; ? = inconclusive; / = no result given; & = joins results of further samples.

SMILES	Rango complex inh	Rango release inh	GLA inh pH 4.5	miR-21 reporter
O=C(CSc1nnc(-c2ccccc2O)o1)N1CCOCC1	-3.1%	-17%	/	-47%
COc1ccc(S(=O)(=O)N2CCC(C(=O)NCCC3=CCCCC3)CC2)cc1OC	-5.7%	1%	1	-4%
N#Cc1ccc(Cn2c(-c3ccc(F)cc3)noc2=O)cc1	-2.0%	-7%	/	0%
Cc1ccc(N(C)S(=O)(=O)c2cccc(C(=O)NC3CC(C)(C)NC(C)(C)C3)c2)cc1	1.9%	0%	/	/
COc1ccc(S(=O)(=O)N2CCCC(C(=O)N3CCCCCC3)C2)cc1 (stereo not drawn)	?	1%	-6	2%
Cc1cc(NCCOCCO)n2c(nc3ccccc32)c1C#N	?	-23%	/	2%
O=c1[nH]c(-c2ccccn2)nc2ccccc12	-3.2%	2%	5	-18%
Cc1ccc(C)c(NC(=S)NCCSc2ccc(Cl)cc2)c1	7.4%	-12%	-2	-3%
CCCCN(C(=O)C1CC(=O)N(c2ccc(C)cc2)C1)c1c(N)n(CCC)c(=O)[nH]c1=O (stereo not drawn)	-1.1%	-1%	/	/
Cc1nn(-c2ccccc2)c(C)c1/C=C/C(=O)OCC(=O)NC1CCS(=O)(=O)C1 (stereo not drawn)	4.6%	-8%	-1	-26%
COC(=O)Cc1[nH]nc2c1C1(C(=O)N(Cc3ccccc3)c3ccccc31)C(C#N)=C(N)O2 (stereo not drawn)	-0.7%	-14%	-1	-15%
O=C(CCS(=O)(=O)c1cccs1)Nc1ccc(C(=O)NC2CCCC2)cc1	0.7%	1%	5	2%
COc1ccc(C2N(c3ccc(F)cc3)C(=O)C3CCCN32)cc1 (stereo not drawn)	0.9%	-10%	-1	0%
COCc1nnc(NS(=O)(=O)c2ccc(C)cc2)s1	-0.3%	1%	1	-5%
CN(C)c1ccc(CN(C)C2CCCCC2)cc1	-1.5%	6%	1	0%
NS(=O)(=O)c1ccc(CCNC(=O)C(=O)NCC2OCCN2S(=O)(=O)c2ccc(Cl)cc2)cc1 (stereo not drawn)	-0.1%	17%	/	14%
CCOc1ccc2nc3ccc4[nH]onc4c3c2c1	?	?	/	/
Cc1c(Cl)cnc(NC(=O)COC(=O)[C@H](C)NC(=O)c2ccccc2)c1Cl	-0.3%	-16%	/	/
CC1=C(C(=O)OC(C)C)C(c2ccncc2)n2ncnc2N1 (stereo not drawn)	-5.6%	-4%	-7	-10%
Cc1nc(CSc2ccc(Cl)cc2)cc(NCc2ccccc2)n1	0.1%	1%	-7	-18%
CC(=O)C1C=CC(C)(C(=O)O)C2C=C(C)C(=O)C(C)(O)C12 (stereo not drawn)	3.4%	?	/	/
CN1CCC(=O)N([C@H](CSc2ccccc2)c2ccccc2)CC1	-0.7%	17%	/	-24%
O=C(NCc1ccc2c(c1)OCO2)C1CCN(C(=O)Nc2ccc(Cl)cc2)CC1	-4.9%	0%	4	-3%
O=C(N=C1SC2CS(=O)(=O)CC2N1c1ccccc1Cl)C1CCCO1 (stereo not drawn)	-5.3%	-12%	/	1%
COC(=O)CCC(=O)Nc1cccc2ccccc12	1.3%	15%	-18	0%
CCc1ccc(NC(=O)/C(C#N)=C/c2cc3ccc(C)cc3nc2N2CCOCC2)cc1	3.6%	-17%	8	-1%
COC(=O)c1ccc(C(=O)NCCCCO)cc1	-0.4%	9%	-3	-8%
CCN1CCN(S(=O)(=O)c2ccc(Cl)c(C(=O)N(C)C(c3ccccc3)c3ccccc3)c2)CC1	-2.4%	0%	/	/
Cc1ccc(/C=C2\SC(=S)N(CCCC(=O)Nc3ccccc3C(=O)O)C2=O)cc1	4.5%	1%	/	3%
Cc1ccc(NC(=O)COC(=O)C2CCC2)cc1S(=O)(=O)N1CCOCC1	-0.3%	-8%	/	/
N#Cc1c(-c2ccc(F)cc2)noc1N	-1.4%	25%	6	3%
CCOC(=O)N1CCN(c2nnc(-c3ccccc3)c3ccccc23)CC1	6.3%	-1%	/	12%
NCCCCCC(=O)Nc1ccncc1	4.5%	18%	-1	-6%
COc1cccc(NC(=O)CN(C)C(=O)CSc2ncnc3sc(C)c(C)c23)c1	-0.1%	-3%	/	/
CN1CC(=O)Nc2ccc([N+](=O)[O-])cc2C1=O	-4.0%	2%	/	-3%
S=C(Nc1ccc(Br)cc1)NC1CCCCC1	0.3%	2%	1	-8%
Cc1cccc(-n2c(SCc3ccc([N+](=O)[O-])cc3)nnc2-c2c[nH]c3ccccc23)c1	?	-16%	4	0%
CCN(C(=O)COC(=O)c1[nH]c(C)c(C(C)=O)c1C)c1c(N)n(Cc2ccccc2)c(=O)[nH]c1=O	-4.8%	-5%	/	/
COc1ccccc1CN1CC(C(=O)N2CCCCCCC2)CCC1=O (stereo not drawn)	-1.7%	28%	/	-6%
Oc1cccc(Nc2nc(O)c(/C=C3\C=Nc4ccccc43)s2)c1	?	?	-25	-65%
CC(OC(=O)C1=Cc2ccccc2OC1)C(=O)NC1CCCC1 (stereo not drawn)	-3.2%	2%	-1	1%
COc1cccc(N2CCN(C(=O)CSc3ccc(F)cc3)CC2)c1	-0.5%	-10%	6	-24%
O=C(C1CCN(Cc2ccccc2)CC1)N1CCCC1	1.3%	2%	4	-4%
CCOc1ccc(NC(=O)N2CCC(NC(=O)C(Cc3ccc(OC)c(OC)c3)NC(C)=O)CC2)cc1 (stereo not drawn)	0.3%	-15%	-10	-3%
CN1C(=O)CSc2ccc(NC(=O)N3CCN(c4ccccn4)CC3)cc21	-0.2%	?	1	21%
Cc1cc(C(=O)N2CCN(c3ccc([N+](=O)[O-])cc3)CC2)no1	0.5%	-14%	-1	-15%
CCCCNC(=O)N1CCc2[nH]c3ccccc3c2C1	?	?	/	0%
CCSc1ncc(Cl)c(C(=O)Nc2cc(C)ccc2C)n1	-1.5%	0%	-7	-1%&2%
COC/C=C/C1=CC2=CC(=O)C(C)(OC(=O)c3cnc4ccccc4n3)C(=O)C2=CN1CCN1CCOCC1 (stereo not drawn)	1.8%	?	2&-14	5%
COc1cccc(NC(=S)NN=C2CCCCCC2)c1	0.2%	15%	-9	-10%

Continued.
SMILES	Rango complex inh	Rango release inh	GLA inh pH 4.5	miR-21 reporter
Cc1ccsc1/C=N/NC(=O)CN1CCN(S(=O)(=O)c2ccc(Br)cc2)CC1	-0.2%	0%	0	-14%
Cc1cc(C)nc(N/N=C/c2c(CO)cnc(C)c2O)n1	?	-23%	/	0%
Cn1c(Cl)c(/C=N/OC(=O)c2ccccc2Cl)c2ccccc21	1.8%	1%	-1	-19%
COc1ccc(/C(O)=C2/C(=O)C(=O)N(c3ccccn3)C2c2cccc(Cl)c2)cc1 (stereo not drawn)	-3.6%	1%	/	-3%
CC(C)[C@@H]1COC(c2cccc(C3=N[C@H](C(C)C)CO3)c2)=N1	1.0%	-3%	/	-48%
O=C1C=CC(=O)c2c(O)c(CO)c(CO)c(O)c21	?	?	/	/
CC(C)C[C@H]1CN([C@@H](CC(C)C)CN2CCCC2CN2C(=S)NC[C@@H]2Cc2ccc(O)cc2)C(=S)N1CC1CCCCC1 (stereo partly drawn)	5.4%	16%	/	/
CN(CCc1cnn(C)c1)Cc1nc(CC2CC2)no1	0.0%	18%	-17	-3%
O=C1CC(c2ccccc2)CC(O)=C1C=NCCc1ccccc1 (stereo not drawn)	0.5%	0%	4	0%
CSc1ncccc1C(=O)OCn1nnc2ccccc2c1=O	-0.8%	-11%	1	-2%
COc1ccc2c(-c3ccccc3)cc(SC(C)C(N)=O)nc2c1 (stereo not drawn)	-0.6%	-3%	1	0%
C=CCn1c(SCC(=O)N(CC)C2CCS(=O)(=O)C2)nc2sc3c(c2c1=O)CCC3 (stereo not drawn)	-2.1%	-1%	/	/
O=C(Nc1ccc2oc(=O)ccc2c1)c1ccc(-c2cccc(Cl)c2)o1	0.5%	36%	-3	-13%
O=C(Cc1ccccc1)NCC(=O)Nc1ccccc1Br	-2.3%	-8%	/	-9%
COc1ccc(-c2noc(N3CCC(C(=O)NCCCN4CCCCC4)CC3)n2)cc1	0.2%	?	/	-5%
O=C(Cn1cc([N+](=O)[O-])cn1)Nc1nccs1	6.0%	30%	3	1%
COc1ccc(CNC(=O)c2csnn2)cc1	0.7%	0%	5	-11%
COC(=O)[C@@H]1C[C@@]2(O)[C@@H](O)[C@@H](O)[C@@H](O)C[C@H]2N1C/C=C/c1ccccc1	-0.7%	-11%	2&-2	-2%
O=C(O)c1cc(Cl)c2c(c1)[C@@H]1C=CC[C@@H]1[C@H](c1ccc(S(=O)(=O)N3CCOCC3)cc1)N2	-1.6%	-3%	5	-9%
COC(=O)c1sc2ccccc2c1NC(=O)c1ccc(S(=O)(=O)N2CCCCC2C)cc1 (stereo not drawn)	-0.4%	31%	3	-10%

Brought forward from above: 3 entries; new compounds follow.
SMILES	Rango complex inh	Rango release inh	GLA inh pH 4.5	miR-21 reporter
COC(=O)[C@@H]1C[C@@]2(O)[C@@H](O)[C@@H](O)[C@@H](O)C[C@H]2N1C/C=C/c1ccccc1	-0.7%	-11%	2&-2	-2%
O=C(O)c1cc(Cl)c2c(c1)[C@@H]1C=CC[C@@H]1[C@H](c1ccc(S(=O)(=O)N3CCOCC3)cc1)N2	-1.6%	-3%	5	-9%
COC(=O)c1sc2ccccc2c1NC(=O)c1ccc(S(=O)(=O)N2CCCCC2C)cc1 (stereo not drawn)	-0.4%	31%	3	-10%
O=C(c1noc2c1CCCC2)N1CCc2ccccc2C1	-3.9%	22%	/	-56%
CCc1nnc(NC(=O)CSc2nnc3scc(-c4ccc(C)cc4)n23)s1	-2.3%	1%	/	/
O=C(NCC(=O)N1CCN(c2ncccn2)CC1)c1ccccc1OC(F)F	-5.9%	6%	/	/
O=C(Nc1ccc(C(=O)N2CCCC2)cc1)c1ccccc1Br	8.1%	-14%	/	-15%
COCCNc1cc(C)nc2ccccc12	-0.1%	9%	5	-2%
COc1cccc(NC(=O)CCCCCn2nnc3ccccc3c2=O)c1	0.8%	12%	/	-5%
CC(=O)c1c(C)[nH]c(C(=O)OCC(=O)N2CCc3ccccc3C2)c1C	-1.5%	12%	/	/
[O-][n+]1c2c(nn1-c1ccccc1)/C(=N/O)CCC2	1.8%	-20%	-17	-7%
CCOC(=O)Cc1cc(=O)n2[nH]c(C)c(C#N)c2n1	0.8%	7%	-5	-3%
CN(Cc1ccc(Cl)c(Cl)c1)C(=O)C1CSC2(C)CCC(=O)N12 (stereo not drawn)	1.0%	-6%	/	/
Nc1ncnc2c1ncn2C1C=C(CO)C(O)C1O (stereo not drawn)	-0.1%	-7%	/	/
O=C(CN1C(=O)c2ccccc2C1=O)OCc1nc2ccsc2c(=O)[nH]1	-1.2%	-14%	/	/
FC(F)(F)c1cc(CCN2CCNC[C@@H]2CC2CCCCC2)cc(C(F)(F)F)c1	2.1%	3%	/	/
CCCOc1ccc(-c2c(C(=O)N/N=C/c3ccco3)nnn2-c2nonc2N)cc1	-2.6%	0%	/	2%
CCOc1ccccc1NC(=O)COc1ccc2ccc(=O)oc2c1	-0.5%	-17%	/	-3%
O=C(O)c1cccc2c1-c1c(cccc1[N+](=O)[O-])C2	-0.9%	-2%	/	/
Cc1ccc(N=Nc2ccc(O)cc2)c(Br)c1	3.1%	4%	/	-4%
CCCCC(=O)Nc1cc(NC(=O)CCCC)cc(C(=O)O)c1	1.2%	-4%	-3	-5%
CCn1c(SCC(=O)N2CCC(C(N)=O)(N3CCCCC3)CC2)nc2ccccc2c1=O	-4.4%	0%	/	/
COc1ccc(N2CCCC2=N)c(OC)c1	0.8%	-11%	-6	1%
COc1ccc(CC(=O)NNC(=O)c2cccnc2)cc1OC	-0.6%	-5%	6	0%
Cc1ccc(OCC(=O)Nc2ccc(N3CCN(S(C)(=O)=O)CC3)cc2)c(C)c1	-1.0%	-20%	4	-1%

Arranged by count of non-hydrogen atoms (falling): part of the list above
SMILES	Rango complex inh	Rango release inh	GLA inh pH 4.5	miR-21 reporter
Cc1ccc(N(C)S(=O)(=O)c2cccc(C(=O)NC3CC(C)(C)NC(C)(C)C3)c2)cc1	1.9%	0%	/	/
O=C(CN1C(=O)c2ccccc2C1=O)OCc1nc2ccsc2c(=O)[nH]1	-1.2%	-14%	/	/
CCCCC(=O)Nc1cc(NC(=O)CCCC)cc(C(=O)O)c1	1.2%	-4%	-3	-5%
Cc1ccc(N=Nc2ccc(O)cc2)c(Br)c1	3.1%	4%	/	-4%

Compound activity deposited in PubChem BioAssay by National Center for Advancing Translational Sciences (NCATS).

The list is partial (hit frequency here may not be typical).
